Screens: PubChem, several laboratories
GALR2 ag – GALR2 receptor agonists, primary screen, cell-based; Galanin receptor type 2 (Homo sapiens), O43603; GALR2-expressing cells, agonist activation read-out; activation, %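 (tested at 5 µM)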; actives 0.48% (n = 140,000);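 active means above mean plus 3 SD of all compounds, about 5% in these data, not always enough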;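 further: 0% = vehicle buffer wells and 100% = reference agonist at full effect; tested in CHO reporter cells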
Target sequence (O43603 whole entry, looked up): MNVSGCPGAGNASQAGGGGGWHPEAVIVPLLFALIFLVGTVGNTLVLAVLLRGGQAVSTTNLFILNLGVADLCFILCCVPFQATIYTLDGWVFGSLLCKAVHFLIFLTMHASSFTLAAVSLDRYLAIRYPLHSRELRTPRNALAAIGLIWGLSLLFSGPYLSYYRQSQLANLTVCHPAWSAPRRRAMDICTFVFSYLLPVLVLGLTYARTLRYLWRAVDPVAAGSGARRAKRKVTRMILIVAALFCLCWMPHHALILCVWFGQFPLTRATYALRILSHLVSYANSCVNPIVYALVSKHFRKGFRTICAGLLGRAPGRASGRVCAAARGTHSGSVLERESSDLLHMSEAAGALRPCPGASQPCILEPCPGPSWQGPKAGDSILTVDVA
PKD1 kinase inh – inhibitors of human PKD1 kinase, biochemical, fluorescence polarization. Serine/threonine-protein kinase D1 (Homo sapiens), Q15139. PKD1 kinase fluorescence polarization assay. inhibition, %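 (about 10 µM by stock and volumes)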. actives 0.056% (n = 200,000). AID 797, 2007;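 active means inhibition of 50% or more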;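 further: controls were vehicle for no effect and a reference inhibitor for full effect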
RGS16-Gao – modulators of RGS16 binding to Galphao, primary screen, biochemical, human proteins, multiplexed bead flow cytometry | Regulator of G-protein signaling 16 (Homo sapiens) + Guanine nucleotide-binding protein … | binding response (% of control), % at 10 µM | actives 0.38% (n = 220,000) | bead-based flow cytometry RGS16-Galphao binding, fluorescence; actives lie on both sides;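 active means below 25% or above 175%, edge rows of some plates excepted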;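 further: Galphao activated by GDP with aluminum fluoride before binding; 100% = wells without compound and 0% = beads without RGS; some results beyond the cut were filed as inactive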
Target sequence (O15492 whole entry, looked up): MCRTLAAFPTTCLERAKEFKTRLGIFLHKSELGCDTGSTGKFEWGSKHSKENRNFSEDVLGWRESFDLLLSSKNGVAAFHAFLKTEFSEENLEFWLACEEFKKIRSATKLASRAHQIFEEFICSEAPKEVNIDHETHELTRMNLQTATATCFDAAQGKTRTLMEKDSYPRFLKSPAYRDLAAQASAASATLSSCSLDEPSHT
Target sequence (P09471 whole entry, looked up): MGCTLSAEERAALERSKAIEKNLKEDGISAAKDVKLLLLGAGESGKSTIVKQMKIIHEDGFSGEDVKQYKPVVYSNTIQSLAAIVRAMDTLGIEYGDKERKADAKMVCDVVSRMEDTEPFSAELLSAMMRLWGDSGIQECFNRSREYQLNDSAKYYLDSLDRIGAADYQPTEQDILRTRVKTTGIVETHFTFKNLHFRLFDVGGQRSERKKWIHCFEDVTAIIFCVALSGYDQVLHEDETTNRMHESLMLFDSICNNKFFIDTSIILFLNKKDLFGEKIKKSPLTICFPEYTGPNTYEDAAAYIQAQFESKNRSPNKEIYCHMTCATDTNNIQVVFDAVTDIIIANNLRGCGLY
HSV replic up – enhancers of HSV replication in host cells, fold increase, host cell viability. maximum fold increase. actives 0.005% (n = 220,000). HSV replication augmentation in cells;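 active means peak rise of 1.5-fold or more in the series; inconclusive means self-fluorescent or not available for retest; tested in PC3 cells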;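 further: first round at 10 µM; read as green reporter fluorescence; hits show the peak of a series up to 25 µM; 1 = signal of infected wells without compound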
INS promoter inh – inhibitors of insulin promoter-driven GFP, primary screen, imaging, TRM-6 cells (human fetal islet line), eGFP reporter, cell count. inhibition, % at 2 µM. actives 0.9% (n = 130,000). reporter expression induced with tamoxifen;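 active means inhibition above the mean plus 3 SD, with well images judged a real hit on visual review, cut at about 60% in these data, passing the limit was not always enough; inconclusive means inhibition over the cutoff but images rejected on review; inactive means inhibition not above the cutoff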
INS promoter inh cell count – second read-out of INS promoter inh, no call of its own (marks repeat the call); normalized cell count, %; measured here: cell count, toxicity; reference of the scale not given here;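 cells exposed to compound for 48 h; stained nuclei by imaging scaled within each plate; lower means fewer cells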
HSV replic up primary fold – also measured in HSV replic up; calls as there; fold increase; compound at 10 µM; measured here: primary screen fold increase 10 uM; tested in PC3 cells;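 GFP signal in the first replicate; 1 = infected wells without compound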
Starred values were filed as active, the others as inactive; i = inactive; ? = inconclusive; / = no result given.

SMILES | GALR2 ag | PKD1 kinase inh | RGS16-Gao | HSV replic up | HSV replic up primary fold | INS promoter inh | INS promoter inh cell count
C/C(=C(/NC(=O)c1ccccc1)C(=O)O)c1ccco1 | -2.4 | 6.6 | 106.0 | i | 1.02 | 40.0 | 142.2
CC(=O)Nc1nc(-c2cccs2)cs1 | -1.6 | -6.5 | 108.3 | i | 1.01 | 30.0 | 138.8
O=C(Cn1nc(Cc2cccnc2)c2ccccc2c1=O)Nc1ccc2c(c1)OCO2 | -0.7 | -6.5 | 60.8 | i | 0.91 | / | /
O=c1c2ccccc2nc(SCc2ccccc2Cl)n1Cc1ccccc1 | -1.1 | 15.1 | 107.8 | i | 1 | / | /
COc1cccc(C2(O)CC(C(F)(F)F)=NN2C(=O)c2ccccn2)c1 (stereo not drawn) | / | -5.0 | 103.1 | i | 1.06 | / | /
CNC(=S)NNC(=O)Cc1ccc(O)cc1 | 0.2 | -7.6 | 47.5 | i | 1 | -9.4 | 113.0
COc1ccc(Nc2nc(C(=O)N(CCO)Cc3ccccc3)cs2)cc1 | / | -10.6 | 103.5 | i | 1.03 | / | /
O=C(CCN1C(=O)c2ccccc2C1=O)N1CCN(Cc2ccc(Cl)cc2Cl)CC1 | -0.6 | -2.1 | 102.3 | i | 0.99 | / | /
O=C(CN1C(=O)COc2ccccc21)NCCN1CCc2ccccc2C1 | -3.6 | -5.7 | 92.8 | i | 0.93 | 10.0 | 122.9
CC1=C2C(=O)OC(c3ccoc3)C2(C)CCC1 (stereo not drawn) | -0.2 | 1.9 | 98.5 | i | 0.9 | -16.7 | 34.0
O=C(NCCCn1ccnc1)c1cn(-c2ccccc2)nc1-c1ccc(F)cc1 | -2.0 | -9.8 | 112.1 | i | 0.87 | / | /
O=C(C1CCN(CC2CC=CCC2)CC1)N(CCc1ccccc1)Cc1ccccc1 (stereo not drawn) | -0.5 | 4.3 | 91.5 | i | 1 | -53.9 | 95.4
CC[C@H](C)[C@H](NS(=O)(=O)c1ccc(C)cc1)C(=O)N1CCC(C(=O)N[C@@H](C)C(=O)O)CC1 | -2.6 | 9.6 | 108.4 | i | 1.05 | 10.3 | 103.4
CCCC(=O)Nc1ccc(N2CCN(S(C)(=O)=O)CC2)cc1 | -0.2 | -1.3 | 65.8 | i | 0.96 | 56.2 | 51.5
CCN(CC)CCC(C)OC(=O)c1ccc(O)cc1O (stereo not drawn) | / | -0.4 | 102.7 | i | 0.97 | -20.0 | 104.4
CCCN(CCC)CCCNS(=O)(=O)c1cc(Br)cc2c1N(C(C)=O)CC2 | -0.8 | -6.5 | 109.8 | i | 1.01 | / | /
COc1ccc(OCC(O)CN2CCCCCC2)cc1 (stereo not drawn) | -0.6 | -3.9 | 101.3 | i | 0.9 | -200.0 | 66.5
COc1ccc(Br)cc1CN1CCN(C(=O)c2cccc(OC)c2OC)CC1 | -3.2 | 5.7 | 103.4 | i | 1.13 | / | /
CCOC(=O)C(=O)N=Nc1c(O)[nH]c2ccccc12 | -0.2 | 1.6 | 97.3 | i | 0.98 | -36.8 | 159.6
Cc1ccccc1NC(=O)Cc1nc(CSc2nnc(C3CCCCC3)n2N)cs1 | -0.8 | -4.4 | 98.4 | i | 1.02 | / | /
CCCC(=O)N(C1CC(C)C(C#N)(C#N)C1(C#N)C#N)N(C)C (stereo not drawn) | / | / | 95.3 | i | 0.9 | / | /
O=C1COc2ccc(C(=O)COC(=O)c3cccnc3Cl)cc2N1 | / | -4.9 | 102.9 | i | 0.99 | 38.9 | 73.0
CCOc1c(N2CC(C)OC(C)C2)c(=O)c1=O (stereo not drawn) | / | / | 102.2 | i | 1.03 | / | /
COc1cc(/C=C/C(=O)c2ccc(NS(=O)(=O)c3ccc(C)cc3)cc2)cc(OC)c1O | -0.4 | 0.3 | 86.5 | / | / | / | /
COc1ccc(NC(=O)CSc2nc(-c3ccncc3)nn2CC(=O)N2CCCC2)cc1 | -0.9 | -4.1 | 107.1 | i | 0.87 | 21.2 | 60.9

The list goes on (3 carried over from the part before).
SMILES | GALR2 ag | PKD1 kinase inh | RGS16-Gao | HSV replic up | HSV replic up primary fold | INS promoter inh | INS promoter inh cell count
CCOc1c(N2CC(C)OC(C)C2)c(=O)c1=O (stereo not drawn) | / | / | 102.2 | i | 1.03 | / | /
COc1cc(/C=C/C(=O)c2ccc(NS(=O)(=O)c3ccc(C)cc3)cc2)cc(OC)c1O | -0.4 | 0.3 | 86.5 | / | / | / | /
COc1ccc(NC(=O)CSc2nc(-c3ccncc3)nn2CC(=O)N2CCCC2)cc1 | -0.9 | -4.1 | 107.1 | i | 0.87 | 21.2 | 60.9
CCCCOc1ccc(-c2nnc(-c3ccco3)o2)cc1 | -0.7 | -1.6 | 101.5 | i | 0.83 | / | /
CCN(CC)S(=O)(=O)c1cccc(-c2nc3n(n2)Cc2ccccc2-3)c1 | 0.6 | -2.0 | 111.7 | i | 0.67 | 21.4 | 109.6
O=C(NCc1ccccc1Cl)C(=O)NCC(c1ccco1)N1CCOCC1 (stereo not drawn) | / | -0.8 | 101.3 | i | 0.98 | 77.8* | 78.2*
Cc1[nH]n(-c2ccc([N+](=O)[O-])cc2)c(=O)c1C=NCCN1CCN(C(=O)C(C)C)CC1 | / | 0.3 | 104.8 | / | / | 50.0 | 137.2
Cc1cccc(NS(=O)(=O)c2ccc(C)c(C(N)=O)c2)c1 | / | -2.6 | 95.6 | i | 1 | / | /
CCN(CC)C(=O)CSc1nnc(COc2ccc(OC)cc2)n1N | / | -6.9 | 141.5 | i | 1.07 | / | /
O=S(=O)(Cc1ccccc1)N1CCn2c(nc3ccccc32)C1 | -4.2 | -24.5 | 96.8 | i | 0.7 | / | /
CCOC(=O)C(=Cc1cc(=O)c(OC)co1)C(=O)OCC | -2.2 | -10.9 | 100.6 | i | 0.5 | -6.7 | 102.3
O=S(=O)(c1ccc(-c2ccccc2)cc1)N1CCCC1 | / | 8.4 | 104.6 | i | 0.92 | / | /
COc1cccc(-c2c3c([nH]c(=O)c2C#N)CCc2cc(OC)ccc2-3)c1 | / | / | 95.3 | i | 0.96 | / | /
CCC1(C)Cc2c(sc3c2c2ncnn2c2nnc(SCC(=O)NCc4ccco4)n32)CO1 (stereo not drawn) | 0.1 | -2.2 | 107.7 | i | 0.96 | / | /
O=C(Nc1ncc2c(n1)-c1ccccc1CC2)c1ccc(F)cc1 | -1.5 | -7.0 | 97.0 | i | 0.81 | / | /
CSc1nc(N2CCN(c3ccccc3Cl)CC2)c2ccccc2n1 | / | 7.0 | 97.1 | i | 1.15 | / | /
CCOC(=O)c1nnn(CC(=O)Nc2cc(Cl)ccc2C)c1C(=O)OCC | -0.8 | 0.1 | 95.4 | i | 0.96 | -3.5 | 193.3
O=C(O)c1ccccc1C(=O)NCC(O)c1ccccc1 (stereo not drawn) | / | / | 106.1 | i | 0.89 | / | /
CCC(=O)N/C=C/n1cnc2cc(C(F)(F)F)ccc21 | -1.3 | 5.7 | 75.2 | i | 0.81 | 25.8 | 74.6
COc1ccc(NC2=C(NCCO)C(=O)c3ccccc3C2=O)cc1 | -1.0 | -11.0 | 94.5 | i | 0.78 | 13.3 | 98.1
COc1cccc(Nc2nc(N)c([N+](=O)[O-])c(NCc3ccccc3)n2)c1 | / | / | 95.8 | i | 0.95 | / | /
COc1cc(C2N3CC4(C)CN2CC(C)(C3)C4)ccc1O (stereo not drawn) | -0.2 | 0.1 | 103.9 | i | 0.91 | / | /
CN(C)S(=O)(=O)N1CCN(C(=O)N2CCCCCC2)CC1 | -2.8 | 0.7 | 101.0 | i | 1.01 | 0.0 | 102.9
CCOc1ccccc1NC(=O)C1C2C=CC(C2)C1C(=O)O (stereo not drawn) | -2.2 | -8.0 | 103.3 | i | 1.21 | -35.7 | 93.9
COc1ccc(CCNS(=O)(=O)c2ccc3c(c2)OCCO3)cc1 | -2.3 | -2.2 | 106.1 | / | / | -387.5 | 60.5
COc1ccc(NC(=O)CCc2nc3ccccc3s2)c(OC)c1 | / | -5.1 | 97.8 | i | 0.8 | / | /
CC1CCN(c2nnc(-c3cccs3)c3ccccc23)CC1 | -0.6 | -5.3 | 100.8 | i | 0.87 | / | /
CCOC(=O)c1ccc(NC(=O)Nc2ccc(Cl)cn2)cc1 | / | -0.1 | 99.7 | i | 0.92 | 26.7 | 134.9

In the list so far, 6 have an aryl thioether with sulfur outside any ring.
SMILES | GALR2 ag | PKD1 kinase inh | RGS16-Gao | HSV replic up | HSV replic up primary fold | INS promoter inh | INS promoter inh cell count
O=c1c2ccccc2nc(SCc2ccccc2Cl)n1Cc1ccccc1 | -1.1 | 15.1 | 107.8 | i | 1 | / | /
Cc1ccccc1NC(=O)Cc1nc(CSc2nnc(C3CCCCC3)n2N)cs1 | -0.8 | -4.4 | 98.4 | i | 1.02 | / | /
COc1ccc(NC(=O)CSc2nc(-c3ccncc3)nn2CC(=O)N2CCCC2)cc1 | -0.9 | -4.1 | 107.1 | i | 0.87 | 21.2 | 60.9
CCN(CC)C(=O)CSc1nnc(COc2ccc(OC)cc2)n1N | / | -6.9 | 141.5 | i | 1.07 | / | /
CCC1(C)Cc2c(sc3c2c2ncnn2c2nnc(SCC(=O)NCc4ccco4)n32)CO1 (stereo not drawn) | 0.1 | -2.2 | 107.7 | i | 0.96 | / | /
CSc1nc(N2CCN(c3ccccc3Cl)CC2)c2ccccc2n1 | / | 7.0 | 97.1 | i | 1.15 | / | /

The listing continues:
SMILES | GALR2 ag | PKD1 kinase inh | RGS16-Gao | HSV replic up | HSV replic up primary fold | INS promoter inh | INS promoter inh cell count
N#C/C(=C\c1cn(CCOc2ccccc2)c2ccccc12)C(=O)NCC1CCCO1 (stereo not drawn) | -0.4 | 5.9 | 98.3 | i | 0.88 | -18.2 | 78.0
CC(/C=N/Nc1ncc(C)c(=O)[nH]1)=C\c1ccccc1 | / | 6.2 | 94.2 | i | 0.92 | / | /
O=C(NNS(=O)(=O)c1ccccc1)C1CCN(S(=O)(=O)c2ccccc2)CC1 | -1.3 | -5.5 | 97.8 | i | 0.76 | / | /
CN(/C=C/C(=C/C=[N+](C)c1ccccc1)OCCCS(=O)(=O)[O-])c1ccccc1 | / | -2.4 | 100.3 | ? | / | 0.0 | 72.9
CCOC(=O)C(C)n1cnc2c(nnn2Cc2ccc(Cl)cc2)c1=O (stereo not drawn) | 1.5 | -10.5 | 106.8 | i | 0.97 | / | /
OCCN=C(c1ccccc1)C12CN3CN(CN(C3)C1)C2 | -2.1 | -9.7 | 95.7 | i | 0.9 | / | /
COCCNC(=O)C(=O)N/N=C(\C)CC(=O)Nc1cccc(C(F)(F)F)c1 | / | / | 108.1 | i | 0.98 | / | /
COc1ccc(NC(=O)c2cccc(C(=O)Nc3ccc(OC)cc3)n2)cc1 | / | -7.6 | 96.3 | i | 0.91 | -29.4 | 98.0
COc1ccccc1-n1c(C)nc2cc(C(=O)O)ccc21 | -1.4 | -5.1 | 99.2 | i | 0.86 | -12.9 | 122.4
CCOc1cc(/C=N/n2cnnc2)ccc1O | -0.1 | -6.2 | 78.9 | i | 0.89 | -100.0 | 26.1
c1ccc(-n2cnc3ccccc32)cc1 | / | 9.4 | 102.0 | i | 0.89 | 16.3 | 103.1
COc1ccccc1C(=O)NCC(=O)n1nc(C)cc1C | 0.3 | 1.8 | 101.3 | i | 0.957 | -7.1 | 96.2
CCCN(CC(=O)Nc1ccccc1OC)C(=O)c1cc2ccccc2o1 | / | -6.1 | 96.0 | i | 0.93 | / | /
COc1cccc(C(=O)c2c[nH]c(C(=O)NCCCN3CCOCC3)c2)c1 | / | -3.0 | 125.3 | i | 1.06 | / | /
O=C(CSc1ncnc2c1oc1ccccc12)N1CCN(c2ccccc2)CC1 | -1.0 | -9.8 | / | i | 0.85 | 25.5 | 80.8
O=C(NC(N1CCOCC1)C(Cl)(Cl)Cl)c1ccc(F)cc1 (stereo not drawn) | / | -6.9 | 102.0 | i | 0.87 | 0.0 | 107.6
O=C(NCCSCc1ccco1)Nc1ccccc1 | -2.1 | -8.2 | 183.6 | i | 1.07 | -7.1 | 95.2
COc1ccc(N(CC(=O)N2CCc3ccccc32)S(=O)(=O)c2c(C)nn(C)c2C)cc1 | -1.5 | -6.9 | 98.6 | i | 0.93 | / | /
Cc1ccc(S(=O)(=O)Nc2nc(C)cc(NCCN)n2)cc1 | -2.5 | 1.2 | 102.8 | i | 0.88 | -42.9 | 137.1
CC(=O)N(C(C)=O)c1c(N2CCOCC2)c2ccccc2oc1=O | -1.6 | -6.4 | 100.9 | i | 1.01 | -12.9 | 68.8
N=c1n(CCc2ccccc2)c2ccccc2n1Cc1ccccc1F | -1.0 | 1.5 | 99.1 | i | 0.61 | -41.4 | 115.5
